Screens deposited in PubChem by several laboratories.
PABP FP inh: blocks human PABP binding to poly(A) RNA | P11940 | 290,000 compounds, 1% hits | fluorescence polarization | inhibition, % at 35 µM;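 active = 50% or more with normal probe brightness, or confirmed in later tests; about a fifth of its hits are not listed in these tables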;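 also: calls also rest on retests at 20 µM and on dose response follow-up; controls were probe without protein and protein plus probe with vehicle; some compounds called inactive have numbers as strong as hits; many hits fall short of the cut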
Target sequence (P11940 whole entry, looked up): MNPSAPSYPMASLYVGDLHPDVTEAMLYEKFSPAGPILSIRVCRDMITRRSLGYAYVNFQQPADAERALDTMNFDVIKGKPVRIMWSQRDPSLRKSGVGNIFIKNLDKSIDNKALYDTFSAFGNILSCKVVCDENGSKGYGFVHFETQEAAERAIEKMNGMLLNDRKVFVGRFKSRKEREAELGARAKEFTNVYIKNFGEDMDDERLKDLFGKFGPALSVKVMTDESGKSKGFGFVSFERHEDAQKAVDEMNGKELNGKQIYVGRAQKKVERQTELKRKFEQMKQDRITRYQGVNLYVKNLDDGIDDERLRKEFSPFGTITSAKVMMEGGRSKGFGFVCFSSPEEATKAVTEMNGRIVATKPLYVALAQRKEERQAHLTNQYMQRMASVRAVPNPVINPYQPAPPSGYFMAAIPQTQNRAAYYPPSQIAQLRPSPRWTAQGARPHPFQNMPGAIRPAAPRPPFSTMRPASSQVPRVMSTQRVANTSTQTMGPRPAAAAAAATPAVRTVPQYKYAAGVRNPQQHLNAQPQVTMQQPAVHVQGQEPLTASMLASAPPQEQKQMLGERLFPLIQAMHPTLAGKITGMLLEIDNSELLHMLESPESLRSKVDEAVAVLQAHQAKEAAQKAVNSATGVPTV
UUG fidelity: modulators of start codon recognition fidelity in yeast; S. cerevisiae UUG-firefly luciferase reporter, luminescence/redox ratio; activity score, % at 18.7 µM; 350,000 compounds, 0.13% hits; AID 602363;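 active = replicate mean at a twofold rise or more, about +100% in these data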;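 also: firefly luciferase made from a UUG start codon reports start codon fidelity; reporter light over untreated wells divided by growth signal over untreated wells; some hits fall short of that in this replicate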
eIF4H inh: inhibitors of RNA binding by human eIF4H | inhibition, % at 35 µM | AID 2012 | eIF4H fluorescence polarization binding assay | 290,000 compounds, 0.94% hits | Q15056;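 active = 50% or more with normal probe brightness, or confirmed in later tests; about a fifth of its hits are not listed in these tables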;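 also: calls also rest on retests at 20 µM and on dose response follow-up; 0% = protein and probe with vehicle and 100% = probe without protein; strong numbers were not always called active; many hits fall short of the cut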
CSC inhib: cancer stem cell inhibition; cancer stem cell-like cells viability, luminescence; inhibition, % at 7.5 µM; 300,000 compounds, 1.1% hits;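 active = mean at 75% or more and at least half the replicates too; tested in HMLE shEcad cells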;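 also: 0% = median of negative and 100% = median of positive control wells; the first replicate is given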
Rce1 inhib: inhibitors of yeast Ras-converting enzyme; Q03530; yeast membranes, quenched prenylated peptide cleavage fluorescence; calls only; 290,000 compounds, 0.27% hits; AID 2563;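 active = fall in fluorescence gain of 50% or more versus controls, with final raw signal at or below 3038400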;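 also: plate controls were neutral control wells for no effect and wells lacking membranes for full effect; tested at 10 µM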
Target sequence (Q03530 whole entry, looked up): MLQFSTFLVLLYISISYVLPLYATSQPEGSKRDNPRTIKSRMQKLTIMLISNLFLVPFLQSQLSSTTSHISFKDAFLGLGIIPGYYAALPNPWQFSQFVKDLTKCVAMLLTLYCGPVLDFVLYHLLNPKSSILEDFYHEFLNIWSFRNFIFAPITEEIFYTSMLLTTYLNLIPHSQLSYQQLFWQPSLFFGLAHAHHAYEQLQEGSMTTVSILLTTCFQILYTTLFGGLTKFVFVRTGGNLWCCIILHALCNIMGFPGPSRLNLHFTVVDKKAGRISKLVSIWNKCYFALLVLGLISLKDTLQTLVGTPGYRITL
MT1-MMP act inh: MT1-MMP (human) activation inhibition; P50281; HT1080 RFP-PRO-GFP cells, GFP/RFP ratio fluorescence, overnight; percent of plate control window, DMSO zero; GFP/RFP ratio change, % at 20 µM; 360,000 compounds, 0.061% hits;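 active = GFP/RFP ratio change of at least 30% with cell ATP level not reduced by more than half and red fluorescence within 50% of control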; also: strong numbers were not always called active
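Material – HT1080 RFP-PRO-GFP cells · Control set – DMSO wells and RFP-L50D-GFP cells · Incubation – overnight cell settling, then overnight compound exposure, 37 °C, 5% CO2 · Compound dosing – single-point 20 µM compound, 1% DMSO · Read-out – GFP/RFP fluorescence ratio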
Env fusion inh: HIV envelope-mediated fusion inhibition; HeLa-JRFL Env/CEM21 cell fusion, luciferase; inhibition, % at 12.3 µM; 360,000 compounds, 1.1% hits; AID 651610;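 active = mean replicate inhibition score of at least 50 and every replicate individually at or above 50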;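 also: 0% = plate neutral controls and 100% = maraviroc near 300 nM; one replicate is shown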
MT1-MMP act inh RFP: second read-out of MT1-MMP act inh, no call of its own (marks repeat the call); RFP signal change, %; measured here: RFP expression control read;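 0 = vehicle wells; hits needed this value within 50% of zero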
Active calls of the source: *; i = inactive; . = not tested or not shown; & = joins results of further samples. A portion of the library. The share of hits here may be higher or lower than overall.

SMILES	PABP FP inh	UUG fidelity	eIF4H inh	CSC inhib	Rce1 inhib	MT1-MMP act inh	MT1-MMP act inh RFP	Env fusion inh
COC(=O)Cc1ccc(NC(C)=O)cc1	.	16	.	-10	.	0	9	-5
O=C(/C=C/C=C/c1ccc2c(c1)OCO2)N1CCCCC1	.	-15	.	-2	.	-2	3	.
CCCCN(C(=O)c1ccc(-c2ccc(Cl)cc2)o1)c1c(N)n(CCC)c(=O)[nH]c1=O	.	-19	.	-8	.	-7	-3	2
CCc1nnc(NS(=O)(=O)c2ccc(NC(=O)OC)cc2)s1	5	-14	-4	-3	i	3	4	-24
CCN(CC)CCNC(=O)CCc1nnc2ccc(N3CCC(C)CC3)nn12	20	-21	-9	-5	i	-1	1	4
CN(C(=O)Cc1c(C(=O)O)n(C)c2ccccc12)c1ccc(F)cc1	19	.	-1	-9	i	-4	1	-26
COc1cccc(C2CC(c3cccs3)=NN2C(=S)Nc2ccccc2)c1OC (stereo unspecified)	-8	-1	0	5	i	-5	-6	.
CC1(c2ccccc2Cl)NC(=O)N(CC(=O)NC(=O)NCc2ccco2)C1=O (stereo unspecified)	-4	3	6	1	i	-2	3	5
COc1ccc(/C=C2/SC(=O)N(CCNC(=O)C3COc4ccccc4O3)C2=O)cc1 (stereo unspecified)	5	-15	2	-6	i	4	1	9
O=C1CCCN1C(=O)COc1ccc([N+](=O)[O-])cc1	.	-16	.	-12	i	4	5	-11
O=S(=O)(Nc1cccc(-c2cn3c(n2)SCC3)c1)c1ccccc1	3	-14	-6	1	i	-2	-3	2
CCCc1cc(=O)n2nc(N3CCC(C(=O)NCc4ccc(C)o4)CC3)sc2n1	8	-1	-3	.	i	4	3	0

Sorted by number of heavy atoms (largest number first): some entries from above.
SMILES	PABP FP inh	UUG fidelity	eIF4H inh	CSC inhib	Rce1 inhib	MT1-MMP act inh	MT1-MMP act inh RFP	Env fusion inh
CCCCN(C(=O)c1ccc(-c2ccc(Cl)cc2)o1)c1c(N)n(CCC)c(=O)[nH]c1=O	.	-19	.	-8	.	-7	-3	2
CN(C(=O)Cc1c(C(=O)O)n(C)c2ccccc12)c1ccc(F)cc1	19	.	-1	-9	i	-4	1	-26
O=C1CCCN1C(=O)COc1ccc([N+](=O)[O-])cc1	.	-16	.	-12	i	4	5	-11

(next part)
SMILES	PABP FP inh	UUG fidelity	eIF4H inh	CSC inhib	Rce1 inhib	MT1-MMP act inh	MT1-MMP act inh RFP	Env fusion inh
O=C1C=C(NCc2ccco2)CCC1	5	14	-5	-17	i	0	2	.
COCCNC(=O)C(=O)NCCN1CCOCC1	13	-2	2	-21	i	-2	3	.
CCn1nc(C(=O)OCc2cccc(S(=O)(=O)N(C)C)c2)c2ccccc2c1=O	1	.	4	1	i	-2	-9	-6
COc1ccccc1-n1c(SCC(=O)Nc2ccc(C)cc2)nc(O)cc1=O	0	-28	-13	3	i	-5	1	-9
O=C(Cc1cccc(NC(=O)C2CCCN(C(=O)C3CCC3)C2)c1)Nc1cccc(C(=O)N2CCCC2)c1 (stereo unspecified)	.	8	.	1	.	4	4	-8
O=C(Nc1c2c(nn1-c1ccccc1)CS(=O)(=O)C2)c1ccccc1C(F)(F)F	-11	10	4	.	i	-2	1	-5
C=CCn1c(SCC(=O)NC2CCS(=O)(=O)C2)nc2scc(C3CC3)c2c1=O (stereo unspecified)	0	-3	-5	-13	.	-5	-4	6
CSc1nnc(-c2cc3c(s2)-c2ccccc2CC3)o1	-3	.	-1	-1	i	-9	-6	.
COc1ccc2c(c1)C(SCC(=O)NCCc1ccc(Cl)cc1)CC(C)(C)O2 (stereo unspecified)	-4	23	11	-17	i	-5	-6	63*
CN(Cc1ccccc1Cl)C(=O)C1CCC(=O)N(C2CCCCCC2)C1 (stereo unspecified)	-1	-2	-9	.	i	-1	-1	17
FC(F)(F)c1ccc(Cl)c(-n2c(Cc3cccs3)n[nH]c2=S)c1	5	-9	-6	-15	i	2	1	-6
Cc1[nH]c(=O)c(C#N)c(C)c1[N+](=O)[O-]	4	0	11	-9	i	0	-1	5
COc1ccc(CNC(=O)Cn2cccc2C(=O)c2ccccc2)cc1	8	-9	-4	-5	i	1	3	-6
Cc1cccn2cc(-c3cccc(S(=O)(=O)N4CC(C)OC(C)C4)c3)nc12 (stereo unspecified)	3	-12	-8	-14	i	6	-6	5
Cc1ccsc1C(=O)OCC(=O)NCc1cccs1	.	-41	.	.	.	1	2	5
CCOC(=O)c1c(C)sc(Sc2ccc(Cl)cc2[N+](=O)[O-])c1OC	4	-12	-1	17	i	-3	-9	.
CCC1CCCCN1S(=O)(=O)c1ccc(NC(=O)C2CCN(C(=O)c3ccco3)CC2)cc1 (stereo unspecified)	-6	2	2	.	i	-3	-1	-2
COc1ccc(C=C2NC(=S)NC2=O)cc1	.	-13	.	.	.	1	4	-15
COc1ccc(C(=O)NCC(=O)NCC(c2ccco2)N(C)C)cc1OC (stereo unspecified)	-5	.	10	15	i	-2	2	1
O=C(Nc1ccc(N2CCCC2)cc1)c1ccccc1F	2	-15	9	-6	i	-10	0	.
O=C(CSc1nnnn1-c1ccc(O)cc1)c1ccc(F)cc1	6	-6	2	3	i	-6	-7	-16
C=CCc1ccc(OCCCCNC2CCCC2)c(OC)c1	3	.	10	44	i	5	2	19
O=C(N[C@@H](Cc1ccccc1)C(=O)OCc1ccccc1)c1nc[nH]c1C(=O)N1CCN(c2ccccc2)CC1	-3	-21	-3	8	i	-2	0	0
COCCN1C(=O)N[C@@H](CCc2ccccc2)[C@H](C(=O)OC)[C@H]1C	.	-5	.	1	i	4	1	22
Cc1ccc(NC(=O)CSc2nc3ccccc3c(=O)n2CCCC(=O)NCCCN2CCOCC2)cc1	17	-13	1	-5	i	-1	0	4
CN(CCc1nc2ccccc2[nH]1)Cc1nc(CC2CC2)no1	-5	.	4	8	.	-1	4	11
Cc1cc(NC(=O)c2ccc(Cl)cc2)ccc1NC(=O)c1ccccc1Cl	-8	-10	-6	-2	i	7	1	7
O=C1C2C3C=CC(C3)C2C(=O)N1Nc1ccc([N+](=O)[O-])cc1[N+](=O)[O-] (stereo unspecified)	-6	-31	3	-18	i	2	-1	-26
Cc1ccccc1/C=N/NC(=O)Cn1cnc([N+](=O)[O-])n1	6	-10	-2	-9	i	3	2	-29
CCC(CC)c1nnc(NC(=O)CN2C(=O)c3ccccc3C2=O)s1	-8	.	0	4	i	-1	0	4
CSc1ncccc1C(=O)OCC(=O)c1cccc(Br)c1	22	.	-6	0	i	2	3	8
O=C1OC(c2ccco2)=N/C1=C\c1ccc(-c2cccc(C(F)(F)F)c2)o1	-13	-14	45	.	i	-3	6	40
COc1ccc(-c2cc(=O)oc3cc4occ(C)c4cc23)cc1	-5	-17	-8	40	i	-9	-6	20
COc1ccc(S(=O)(=O)NCc2ccc3c(c2)OCO3)cc1C(=O)O	4	-14	-14	-13	i	4	9	-126
CC(C)(C)OC(=O)NCCCC[C@H](NC(=O)c1nc[nH]c1C(=O)N1CCc2ccccc2C1)C(=O)OC(C)(C)C	2	3	0	-11	i	3	-16	11
CCN(c1ccccc1)S(=O)(=O)c1ccc(Cl)c(NC(=O)CN(C)Cc2cccc(F)c2)c1	.	15	.	.	.	-9	-12	14

One compound at a time (already shown). Order of screens: PABP FP inh | UUG fidelity | eIF4H inh | CSC inhib | Rce1 inhib | MT1-MMP act inh | MT1-MMP act inh RFP | Env fusion inh
CN(CCc1nc2ccccc2[nH]1)Cc1nc(CC2CC2)no1 is listed with -5 | . | 4 | 8 | . | -1 | 4 | 11
CC(C)(C)OC(=O)NCCCC[C@H](NC(=O)c1nc[nH]c1C(=O)N1CCc2ccccc2C1)C(=O)OC(C)(C)C is listed with 2 | 3 | 0 | -11 | i | 3 | -16 | 11
Cc1ccc(NC(=O)CSc2nc3ccccc3c(=O)n2CCCC(=O)NCCCN2CCOCC2)cc1 is listed with 17 | -13 | 1 | -5 | i | -1 | 0 | 4

(cont.)
SMILES	PABP FP inh	UUG fidelity	eIF4H inh	CSC inhib	Rce1 inhib	MT1-MMP act inh	MT1-MMP act inh RFP	Env fusion inh
CCc1ccccc1N=C1SCC(=O)N1C	-4	-8	-9	2	i	-4	1	-118
C[C@H]1CN([C@@H](C)CO)C(=O)CCCn2nncc2CO[C@H]1CN(C)S(=O)(=O)c1ccc(-n2cccn2)cc1	.	-12&7	.	.	.	0	3	-13
O=C(NCCc1nc2ccccc2[nH]1)c1ccc(Cl)c([N+](=O)[O-])c1	-6	.	8	-1	i	3	4	14
Nc1nc(C2CCCCC2)cs1	-5	-3	-4	-13	i	-4	2	-60
CC(C)c1ccc(NC(=O)c2cnn(-c3ccccc3)c2NC(=O)c2ccco2)cc1	-9	-1	-3	39	i	4	0	.
COC(=O)c1cc2sc(Cl)cc2n1CC(=O)N1CCCc2ccccc21	-4	-20	-2	-4	i	-5	1	.
CCOc1cc(/C=N/n2cnnc2)ccc1OS(=O)(=O)c1ccc(C)cc1	-13	.	2	-9	i	-1	-1	-15
Cc1c(Cc2ccccc2)c(=O)oc2cc(OCC(=O)N3CCC(C(=O)O)CC3)ccc12	-7	1	-1	-9	.	2	0	.
CN1CCN(C(=O)c2ccc(CSc3nc4ccncc4n3Cc3ccc(F)cc3)cc2)CC1	-4	-18	5	-9	i	-3	1	-29
CC(C)(C)c1ccc(C(=O)N2CCC2(C)C(=O)NCc2cccs2)cc1 (stereo unspecified)	.	20	.	.	.	6	-16	11
O=C(O)COCC(=O)N1CCN(c2cc(C(F)(F)F)nc3ccccc23)CC1	13	-10	8	2	i	1	4	-22
COc1ccc(NC(=O)N(C)C[C@H]2Oc3c(NS(=O)(=O)c4cccs4)cccc3C(=O)N([C@@H](C)CO)C[C@@H]2C)cc1	.	6&49	.	-4	.	3	1	.
O=C(CCCN1C(=O)/C(=C/c2ccccc2Cl)SC1=S)NNC(=O)c1cccnc1	-1	.	-4	0	i	2	6	2
Cc1ccc(CNC(=O)C(=O)c2cn(CC(=O)N3CCOCC3)c3ccccc23)cc1	8	2	-6	-1	i	-2	0	-6
O=C(COC(=O)C1CC2CCCC(C1)C2=O)Nc1cccc(F)c1 (stereo unspecified)	.	-5	.	1	.	1	3	.
CCOC(=O)C1=C(COC(=O)c2ccc(Cl)nc2)NC(=O)NC1C (stereo unspecified)	.	-16	.	.	.	1	8	-4
Cc1ccccc1N1CCN(C(=O)c2ccc(Oc3ccc(C(F)(F)F)cn3)cc2)CC1	-7	-1	1	87*	i	-5	-15	68*
CC(C)Cn1c(N)c(C=O)c(=O)[nH]c1=O	-6	.	-7	-2	i	4	3	-1
CN(CCc1ccccn1)C(=O)Nc1ccc(C(C)(C)C)cc1	8	-9	2	-11	i	4	1	-6
Clc1ccccc1-c1nnc(-c2ccc3c(c2)OCO3)o1	3	-27	-2	-4	i	-3	-1	-93
NC(N)=NCc1cccc(I)c1	.	-11	.	-1	.	3	-1	16
CCCN1C(=O)c2ccc(C(=O)Nc3cc(C)on3)cc2C1=O	4	-15	4	-10	i	-1	-1	-7
Cc1cc2c(c(=O)n1Cc1ccco1)C(c1ccccc1)C(C#N)=C(N)O2 (stereo unspecified)	-8	-6	2	-3	i	2	2	-56
Cc1ccc(-n2cc(-c3ccc([N+](=O)[O-])cc3)[nH]c2=S)c(C)c1	8	.	1	-7	i	-30	-21	-7
O=C(N/N=C/c1cccc([N+](=O)[O-])c1)c1cc(-c2ccccc2)nc2ccccc12	0	-18	5	-5	.	1	-4	10
Cc1noc(C)c1C(=O)NC(C)c1ccc(Cl)cc1Cl (stereo unspecified)	6	-6	6	-18	i	11	10	5
COc1ccc(NC(=O)c2cc(-c3ccccn3)nc3ccccc23)cc1S(=O)(=O)N(C)C	.	-20	.	.	.	-2	7	-142
COC(=O)Nc1nc(-c2ccc(F)cc2)c(C)s1	0	-1	-2	.	i	7	0	-18
COc1ccccc1CNC(=O)C[n+]1ccccc1	8	-2	-4	2	i	4	1	.
CCN(CCNC(=O)C1CCN(S(C)(=O)=O)CC1)c1ccccc1	-16	-24	-1	3	i	5	2	-10
C=CCSc1nc(=O)n2cccc(C)c2n1	2	5	-3	.	i	0	4	.
